E coli growth = E. coli growth inhibition. Escherichia coli growth, OD600, 23 h; hits give low values. AID 1053175. 0.21% of 330,000 active. OD600 absorbance (test concentration not listed);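 active = OD600 absorbance below the run mean of sample wells minus 3.6 SD, in any replicate, cut at about 0.56 in these data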;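 also: stock transfer was 300 nL into about 60 µL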
AF4-AF9 inh = MLL-AF4/AF9 protein interaction inhibition; P42568; AlphaScreen, biotin-AF4 peptide binding to FLAG-AF9; inhibition, % at 10 µM; 0.47% of 350,000 active; AID 651704;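 active = every replicate reaching a set inhibition limit, whatever the replicate mean, cut at about 25% in these data; inconclusive = mean inhibition reaches that limit but some replicates miss it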;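 also: 0% = plate neutral control median and 100% = total signal loss; the record names both 10 and 1 µM as test concentration; the first replicate is given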
Vif TR-FRET = inhibitors of Vif binding to APOBEC3G peptide, primary screen, biochemical, TR-FRET, GST-Vif 1-94, biotin-A3G peptide, dose response retest (AID 1117319); TR-FRET GST-Vif / biotin-A3G peptide binding; higher % means a stronger effect; test concentration not given here; strong numbers were not always called active; one-dose inhibition, %; IC50 in µM for titrated hits; 0.57% of 260,000 active;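 active = above the screen mean plus three standard deviations and confirmed in dose response; inconclusive = results disagree or hit not tested in dose response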;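 also: Vif residues 1-94 fused to GST binding biotinylated APOBEC3G peptide 110-148; 0% = full assay without inhibitor and 100% = GST in place of GST-Vif; retest series ran down from 100 µM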
FGF22 binding = binders of recombinant human FGF22 by thermal shift. Q9HCT0. SYPRO orange fluorescence; percent of sucrose octasulfate shift, DMSO zero. calls only at 9.99 µM. 1.5% of 340,000 active;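 active = melting point raised past a set limit in the mean and every replicate; inconclusive = no clear call; three in four hits are not shown here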
Target sequence (Q9HCT0 whole entry, looked up): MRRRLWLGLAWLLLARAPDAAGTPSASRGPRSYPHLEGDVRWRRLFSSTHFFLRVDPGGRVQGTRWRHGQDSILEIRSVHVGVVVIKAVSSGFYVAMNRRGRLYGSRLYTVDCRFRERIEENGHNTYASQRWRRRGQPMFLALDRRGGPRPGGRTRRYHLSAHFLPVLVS
HNF4A DNA FP = change in binding of human HNF4 alpha to DNA | P41235 | HNF4a-FITC DNA binding, fluorescence polarization, 1 h | activity change, % at 10 µM | 0.3% of 360,000 active; in the data active = activity change above about 30%, passing the limit was not always enough;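 also: controls were the assay level and a saturating level of protein; the project sought stronger binding though the title names inhibitors; some compounds called inactive have numbers as strong as hits; positive values seem to mean higher polarization but the record does not say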
Target sequence (P41235 whole entry, looked up): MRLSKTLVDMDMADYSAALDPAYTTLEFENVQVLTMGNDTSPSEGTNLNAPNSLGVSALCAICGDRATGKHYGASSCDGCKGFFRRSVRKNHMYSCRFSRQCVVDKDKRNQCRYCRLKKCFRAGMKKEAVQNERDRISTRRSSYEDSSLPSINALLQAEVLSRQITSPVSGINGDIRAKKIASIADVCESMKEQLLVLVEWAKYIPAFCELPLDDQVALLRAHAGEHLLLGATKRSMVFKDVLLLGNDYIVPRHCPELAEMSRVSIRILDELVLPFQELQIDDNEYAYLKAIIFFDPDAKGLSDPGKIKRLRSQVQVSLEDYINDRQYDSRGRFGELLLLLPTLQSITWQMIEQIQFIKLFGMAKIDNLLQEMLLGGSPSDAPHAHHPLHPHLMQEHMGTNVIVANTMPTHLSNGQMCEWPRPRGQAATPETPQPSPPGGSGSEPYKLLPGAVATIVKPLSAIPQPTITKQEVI
ALR H2O2 inh = inhibitors of human sulfhydryl oxidase ALR. P55789. purified ALR, DTT oxidation, H2O2 HRP-luminol luminescence. inhibition, % (no concentration beside the values). 3.8% of 290,000 active;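 active = mean and each replicate at 75% or more; inconclusive = only one of the two met; inactive = neither met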;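 also: stock transfer was 7.5 nL into about 7.5 µL; 0% = neutral wells and 100% = wells with inactivated enzyme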
Target sequence (P55789 whole entry, looked up): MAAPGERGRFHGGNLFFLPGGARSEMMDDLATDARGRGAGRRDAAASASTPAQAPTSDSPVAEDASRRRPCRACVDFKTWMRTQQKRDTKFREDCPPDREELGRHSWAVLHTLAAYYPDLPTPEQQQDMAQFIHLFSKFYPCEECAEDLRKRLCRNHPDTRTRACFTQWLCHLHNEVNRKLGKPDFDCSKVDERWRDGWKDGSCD
rRNA inh HTS = selective bacterial rRNA inhibition in E. coli | E. coli WT GFP vs humanized-ribosome RFP mutants, fluorescence, 24 h; hits give low values; DMSO median 0, no signal -100 | GFP signal change (wild-type ribosome), % (concentration not given with the values) | 1.6% of 350,000 active;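 active = significant combined selectivity score with lowered wild-type GFP, culture density cut under 30%, mutant RFP and density less affected; inactive = any of these conditions unmet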; also: one replicate is shown; some compounds called inactive have numbers as strong as hits
rRNA inh HTS OD600 = second read-out of rRNA inh HTS, no call of its own (marks repeat the call); OD600 change, %; measured here: OD600 growth;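 optical density of the mix in the first replicate; 0 = DMSO median and -100 = no signal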
rRNA inh HTS RFP = further read-out of rRNA inh HTS, marked with its call; RFP signal change, %; measured here: RFP humanized mutant strains;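 first replicate; 0 = DMSO median and -100 = no signal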
An asterisk follows results filed as active; i = inactive; ? = inconclusive; / = no result given; & = joins results of further samples.

SMILES	E coli growth	AF4-AF9 inh	Vif TR-FRET	FGF22 binding	HNF4A DNA FP	ALR H2O2 inh	rRNA inh HTS	rRNA inh HTS OD600	rRNA inh HTS RFP
Cc1nn(S(=O)(=O)c2ccc(C(C)C)cc2)c(C)c1S(=O)(=O)N1CCOCC1	0.7	-3.6	/	i	3.3	0	9	15	-2.8
C[C@@H]1CN([C@@H](C)CO)C(=O)c2cc(Br)cnc2O[C@H]1CN(C)Cc1ccncc1	/	-4.9	/	i	/	/	5	-2	-3.5
O=C(CCNC(=O)c1ccc(Cl)cc1)Nc1cccc(S(=O)(=O)N2CCCCC2)c1	0.7	-5.5	/	i	3.2	/	-4	-46	-1.9
Cc1c(Cl)cccc1NC(=O)Nc1cc(C(C)(C)C)nn1C	0.66	0.6	-1%	i	-2.2	4	-13	-28	-3.7
C[C@@H]1CN([C@@H](C)CO)C(=O)c2cc(NC(=O)Nc3ccc(C(F)(F)F)cc3)ccc2O[C@@H](C)CCCCO[C@@H]1CN(C)C(=O)Nc1ccc2c(c1)OCO2	/	0.5	/	i	/	/	0	0	-1.2
CCOC(=O)c1cnc(SC2CC(=O)N(c3cccc(OC)c3)C2=O)nc1N (configuration not stated)	0.66	/	-8%	/	-4.3	12	/	/	/
Cc1cc(C)cc(NC(=O)CSc2nc3ccncc3[nH]2)c1	0.69	2.1	-6%	i	1.7	/	8	-19	7.8
CC(C)CC(NC(=O)c1ccccc1)C(=O)N/N=C/c1ccco1 (configuration not stated)	/	/	13%	/	-8.5	-5	/	/	/
CCOC(=O)N1CCC(NC(=O)c2cc(C(=O)NCc3ccc(F)cc3)ccc2CO)CC1	0.67	/	-7%	/	2.3	-1	/	/	/
Cc1cc(C)nc(NS(=O)(=O)c2ccc(N3C(=O)C4CCCCC4C3=O)cc2)n1 (configuration not stated)	0.66	-4.5	/	i	2.2	-1	2	3	-1.8
O=C(c1nc2ccc(Cl)cn2c1CN1CCC[C@H]1CO)N1CCCCCCC1	0.66	-2.3	/	i	-15	-5	11	0	2.6
O=C(Nc1cccc(F)c1)C1CCCN(S(=O)(=O)c2ccc(-n3cnnn3)cc2)C1 (configuration not stated)	0.66	3.1	-1%	i	2.7	-12	-7	1	0.6
Cc1ccc(S(=O)(=O)Nc2ccc3c(c2)C(=O)N([C@H](C)CO)C[C@H](C)[C@@H](CN(C)C(=O)NC2CCCCC2)OCCCC[C@@H](C)O3)cc1	/	-1.2&0.1	1%	i	4.8	/	10&2	-10&-9	0.4&0.3
CCc1ccc(/C=N/NC(=O)c2ccccn2)cc1	/	0.2	12%	i	-3.4	1	-11	-4	-4.8
CCCC(=O)Nc1nc2nc(C)cc(=O)n2[nH]1	0.7	/	9%	/	0.4	0	/	/	/
CCc1nnc(NC(=O)c2ccc(-c3ccc([N+](=O)[O-])cc3Cl)o2)s1	0.67	-1.7	4%	i	1.7	13	4	10	-0.7
COC(=O)Cc1ccc(OC(=O)C2CCN(S(=O)(=O)c3ccc(OC)c(OC)c3)CC2)cc1	0.69	-2.3	-13%	i	0.0	-5	6	7	2.2
O=C(c1cc2cc([N+](=O)[O-])ccc2s1)N1CCOCC1	0.64	-0.1	/	i	-1.8	15	16	12	1.3
Cc1ccc(Cl)cc1N1CCN(C(=O)CCC(=O)O)CC1	0.76	/	?	/	1.3	-10	/	/	/
CCN(CC)CCCNC(=O)c1cc(-c2ccc(O)cc2)on1	0.78	7.6	0%	i	0.8	99*	5	6	-2.2
COc1ccccc1-c1cn(CC[C@@H]2CC[C@H](NC(=O)C3CCCCC3)[C@H](CO)O2)nn1	/	-2.8	/	i	/	/	-6	-5	0.7
CCOCCCNC(=S)Nc1cc(OCC)c(NC(=O)c2ccco2)cc1OCC	0.68	1.0	5%	/	3.2	-59	/	/	/
CCCn1c(N)c(N(CCOC)C(=O)c2cc(-c3ccco3)nc3ccccc23)c(=O)[nH]c1=O	0.72	-3.9	23%	i	-5.5	-4	17	21	5.5
CCCCOCCCNC(=O)C[C@@H]1C[C@@]2(C(=O)OC)CC(C)(C)CC=C2N(CCc2ccc(OC)c(OC)c2)C1=O	/	2.2	/	i	3.9	/	-3	-11	5.3
O=C(CSc1nnc(-c2c[nH]c3ccccc23)o1)N1c2ccccc2CCc2ccccc21	0.71	4.5	-1%	i	-0.4	/	-9	-3	7.3

The closing four entries of the part above come first, to join the parts:
SMILES	E coli growth	AF4-AF9 inh	Vif TR-FRET	FGF22 binding	HNF4A DNA FP	ALR H2O2 inh	rRNA inh HTS	rRNA inh HTS OD600	rRNA inh HTS RFP
CCOCCCNC(=S)Nc1cc(OCC)c(NC(=O)c2ccco2)cc1OCC	0.68	1.0	5%	/	3.2	-59	/	/	/
CCCn1c(N)c(N(CCOC)C(=O)c2cc(-c3ccco3)nc3ccccc23)c(=O)[nH]c1=O	0.72	-3.9	23%	i	-5.5	-4	17	21	5.5
CCCCOCCCNC(=O)C[C@@H]1C[C@@]2(C(=O)OC)CC(C)(C)CC=C2N(CCc2ccc(OC)c(OC)c2)C1=O	/	2.2	/	i	3.9	/	-3	-11	5.3
O=C(CSc1nnc(-c2c[nH]c3ccccc23)o1)N1c2ccccc2CCc2ccccc21	0.71	4.5	-1%	i	-0.4	/	-9	-3	7.3
O=[N+]([O-])c1cc(Cl)ccc1NCCNS(=O)(=O)c1ccccc1	/	/	20%	/	2.7	-12	/	/	/
Cn1c(NC(=O)C2CC2)cc(=O)n(C)c1=O	0.7	49*	?	i	-1.2	/	9	12	0.3
Cc1cc(C(=O)C(C)Sc2cccc[n+]2[O-])c(C)n1-c1ccc(Cl)cc1 (configuration not stated)	0.69	8.4	6%	/	-1.7	68	-43	-66	-26
C[C@H]1CN([C@@H](C)CO)C(=O)c2cccc(NC(=O)c3nc4ccccc4s3)c2O[C@@H]1CN(C)C(=O)Nc1ccc(C(F)(F)F)cc1	/	2.3	/	i	/	/	-2	4	0.3
Cc1ccc(S(=O)(=O)N(CCC(=O)Nc2ccc(OC(F)(F)F)cc2)c2ccccc2)cc1	0.68	/	-7%	/	1.9	3	/	/	/
Cc1cccc(NC(=O)C2(C)CC3c4ccccc4C2c2ccccc23)c1C (configuration not stated)	0.73	/	/	/	-1.1	2	/	/	/
OCCN1CCN(C(=S)c2ccc(Br)cc2)CC1	0.64	/	-11%	/	4.8	-3	/	/	/
CCN1C(=O)[C@H]2[C@@H](c3ccc(C(F)(F)F)cc3)N[C@]3(CCCN(CC4CCCCC4)C3=O)[C@H]2C1=O	/	1.5	/	i	-2.3	/	-4	-14	-2.5
O=C(Oc1cccc(C(=S)N2CCOCC2)c1)c1cccc(Cl)c1	0.7	3.6	-2%	i	-3.6	-11	-15	-12	-3.5
OC(c1ccc2c(c1)OCO2)c1ncc(-c2cccc(C(F)(F)F)c2)[nH]1 (configuration not stated)	/	7.2	/	i	1.2	/	/	/	/
Cc1nnc(SCC(=O)NC23CC4CC(CC(C4)C2)C3)n(N)c1=O	0.67	?	9%	i	-4.3	/	9	3	-3.0
O=C(COC(=O)CNS(=O)(=O)/C=C/c1ccccc1)NC1CCS(=O)(=O)C1 (configuration not stated)	0.69	/	-1%	/	3.6	-8	/	/	/
C[C@H](CO)N1C[C@H](C)[C@@H](CN(C)C(=O)Nc2cccc3ccccc23)OCCCC[C@H](C)Oc2ccc(NS(=O)(=O)c3ccccc3)cc2C1=O	/	-3.2	/	i	/	/	4	11	4.2
OC[C@@H](O)[C@@H](O[C@@H]1O[C@H](CO)[C@H](O)[C@H](O)[C@H]1O)[C@H](O)[C@@H](O)CO	/	-1.5	/	i	2.4	7	12	7	1.3
C[C@H]1CN([C@@H](C)CO)C(=O)c2cc(C3=CCCCC3)cnc2O[C@@H]1CN(C)C(=O)c1ccncc1	/	-1.2	/	i	/	/	0	8	-2.7
OCCN(CC#CC(O)(c1ccccc1)C1CCCCC1)CCO (configuration not stated)	0.68	0.3	/	i	-6.9	0	-2	-7	-0.1
O=C(CC1Sc2ccccc2NC1=O)NCc1ccc(Cl)cc1 (configuration not stated)	0.71	-4.3	/	i	-1.5	/	2	9	-2.1
CCCNCc1cc(OC)c(OCC(=O)NCCc2ccccc2)cc1Br	0.7	/	18%	/	-3.7	-10	/	/	/
C=CCOC(=O)C1=C(C)NC(SC)=C(C#N)C1c1ccc(OCC)cc1 (configuration not stated)	0.69&0.75	5.5	-3%&8%	i	0.4&-1.5	-4	-8	-36	-4.6
CCOc1cc(S(=O)(=O)NCc2ccccn2)ccc1Cl	0.65	8.2	-7%	i	-0.2	-2	1	-2	-2.0
Cn1c(SCC(=O)N2CCCC2=O)nc2ccccc2c1=O	0.68	0.3	-7%	i	-4.1	3	7	9	0.2
Cc1ccc(C(=O)Nc2ccc(S(=O)(=O)NC3=NCCCCC3)cc2)c(C)c1	0.67	-7.5	-3%	i	-0.1	/	5	-1	-1.7
CNC(=O)c1c(NC(=O)CS(=O)(=O)c2ccc(Cl)cc2)sc(C)c1C	0.71	0.4	0%	i	0.7	/	-17	-14	-2.5
C[C@@H]1CCCCO[C@@H](CN(C)Cc2ccc(C(F)(F)F)cc2)[C@@H](C)CN([C@H](C)CO)C(=O)c2cc(N(C)C)ccc2O1	/	18&21	0%	i	3.0	/	-5&-1	-7&-7	7.5&1.1
O=C1CCC(C(=O)OCc2ccccc2)N1 (configuration not stated)	0.71	2.2	1%	i	2.2	1	18	14	-5.8
Next structures:
SMILES	E coli growth	AF4-AF9 inh	Vif TR-FRET	FGF22 binding	HNF4A DNA FP	ALR H2O2 inh	rRNA inh HTS	rRNA inh HTS OD600	rRNA inh HTS RFP
O=C(COc1ccccc1)Nc1ccc(-c2ccc(N3CCOCC3)nn2)cc1	0.66	-1.3	-3%	i	1.9	2	-5	2	-2.1
O=C(COC(=O)C1(c2ccccc2F)CCCC1)N1CCN(C(=O)c2ccco2)CC1	0.67	/	5%	/	-0.8	0	/	/	/
C[C@H]1CN([C@@H](C)CO)C(=O)c2cc(NS(=O)(=O)c3cn(C)cn3)ccc2O[C@@H]1CN(C)C(=O)Nc1ccc2c(c1)OCO2	/	-2.2	/	i	/	/	2	-9	-2.8
CCC(=O)Nc1ccc2c(c1)C(=O)N(C)C[C@H](OC)[C@@H](C)CN(Cc1cccc(F)c1)[C@H](C)CO2	/	1.8	/	i	/	/	-8	-12	1.6
COc1ccc(NC(=O)Nc2ccc3c(c2)C(=O)N([C@H](C)CO)C[C@H](C)[C@@H](CN(C)S(=O)(=O)c2ccc(C)cc2)OCCCC[C@H](C)O3)cc1	/	-6.7	/	i	/	/	-4	-2	-2.2
CCCCNC(=O)C1CC(=O)N(c2ccc(OC)cc2)C1c1ccc(OC)cc1 (configuration not stated)	0.72	/	0%	/	-3.0	-4	/	/	/
O=C(NCc1ccc2c(c1)OCO2)c1ccccc1	0.7	3.3	?	/	6.8	/	8	17	-3.4
COc1ccc(C(=O)NC(=S)NCc2cccnc2)cc1[N+](=O)[O-]	0.71	/	4%	/	0.1	21	/	/	/
COc1ccc(-n2ncc(C(C)NS(=O)(=O)c3cccs3)c2C)cc1 (configuration not stated)	0.69	1.1	0%	i	2.1	-33	-12	-11	2.1
C[C@H](O)C#Cc1ccc([C@H]2[C@H]3CN(S(=O)(=O)Cc4ccccc4)CCCCN3[C@H]2CO)cc1	/	1.6	/	i	/	/	-2	1	3.8
CCOc1ccc(C)cc1S(=O)(=O)n1cnc2ccccc21	0.69	-3.6	10%	i	-9.3	-8	5	5	-0.5
Cc1cccc(C)c1NC(=O)CSc1nnc(NC(=O)c2ccccc2C(=O)O)s1	0.65	-0.1	-7%	/	-0.9	-2	10	17	18
CCOc1cc(N2CCOCC2)c(OCC)cc1NC(=O)CN1C(=O)NC2(CCCCC2)C1=O	0.7	-9.8	11%	i	-0.4	22	9	11	1.2

The list is partial; rates above refer to the full screens.
